VACV E9 pol inh: vaccinia E9 polymerase processive synthesis inhibition; normalized absorbance, % (concentration not given with the values); 46,000 tested, 0.94% active; in vitro processive DNA synthesis, absorbance read-out; active compounds read low; some inactives read as strong as hits;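 active = replicate mean up to 90% and picked by the depositor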;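 also: 100% = median of the test wells of a plate; 100 nL library stock went into each well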
The depositor's hits bear a star. Only part of the results is shown. The share of hits here may be higher or lower than overall.

SMILES	VACV E9 pol inh
CCCn1c[n+](CC(=O)C(C)(C)C)c2ccccc21	101
COc1ccc(NC(=O)c2ccccc2OCc2ccccc2)cn1	88
CN1C(=O)/C(=C/c2ccccc2OCc2ccc(C(=O)O)cc2)NC1=S	98
O=Nc1c(O)n(CN2CCCCC2)c2ccccc12	98
CC(=O)N1CCN(c2ncnc3nc[nH]c23)CC1	100
O=C(O)c1nccnc1C(=O)Nc1ccc(N2CCOCC2)cc1	89
CCOC(=O)C1C2C=CC3(CN(Cc4ccc(C)cc4)C(=O)C13)O2 (stereo unspecified)	93
Nc1scc[n+]1CC(=O)c1ccc(Cl)c(Cl)c1	98
CC(C)(C)N(Cc1ccccc1)C(=O)c1cccs1	92
c1ccc(OCc2nn3c(-c4ccccc4)nnc3s2)cc1	97
CN1C2C=C(N(C(=O)c3ccc(Cl)cc3)c3ccccc3)CC1CC2 (stereo unspecified)	100
NC(=O)Cc1nc(-c2cc3ccccc3oc2=O)cs1	101
O=S(=O)(c1ccc(-c2ccccn2)s1)N1CCCC1c1ccc(F)cc1 (stereo unspecified)	84
COc1ccc(-c2nnc3ccc(SCc4ccccc4F)nn23)cc1OC	101
COC(=O)c1sccc1N1C(=O)C=C(C)C1=O	82
O=C(NCC(c1cccnc1)N1CCOCC1)c1ccco1 (stereo unspecified)	100
CN(C)c1ccc(C(=O)Nc2cc(C(F)(F)F)ccc2-n2cncn2)cc1	102
Cc1cc(C)n(C(=S)CSc2nc(-c3ccc(F)cc3)cc(-c3ccco3)c2C#N)n1	97
Cc1cccc(CC2(Cc3cccc(C)c3)C(=O)OC(C)(C)OC2=O)c1	100
CCC(CO)NC1=CC(=O)CCC1 (stereo unspecified)	101
COc1cc(C(=O)N2CCCN3C(=O)c4ccccc4C23)cc(OC)c1OC (stereo unspecified)	94
Cc1cn(C/C=C\c2ccccc2)c(=O)n(C/C=C/c2ccccc2)c1=O	100
O=C(Cn1cc(C(=O)c2cccs2)c2ccccc21)Nc1ccccc1C(F)(F)F	97
C=CCn1c(SCC(=O)O)nnc1-c1sc2ccccc2c1Cl	100
NC(=O)c1ccccc1NC(=O)COc1ccc2oc3c(c2c1)CCCC3	105
COc1ccc(OCCn2c(N)nc3ccccc32)cc1	102
CCOC(=O)c1cc(CC)sc1/N=C/C1C(=O)c2ccccc2C1=O	100
COc1ccccc1NC(=O)CSc1nc2c(oc3ccccc32)c(=O)n1Cc1ccc(F)cc1	88
CN(C)c1ccc(C2N(Cc3ccccc3)CCC3CCCCN32)cc1 (stereo unspecified)	93
CN(Cc1ccccc1)C(=O)COC(=O)c1cncc(Br)c1	104
N#CC(C(N)=S)=C1CCCC1	100
CCOC(=O)C[N+](C)(C)Cc1ccccc1	100
COC(=O)C(C(=O)OC)c1ccc(C#N)c(C#N)c1	100
O=C(Nc1cccc(F)c1)C(Cc1ccccc1)n1cccc1 (stereo unspecified)	102
CCN(Cc1ccncc1)C(=O)CSc1ccc2ccccc2c1	85
Cc1cc(C)c(S(=O)(=O)NC(C)C2C3CC4CC(C3)CC2C4)c(C)c1 (stereo unspecified)	100
Cc1c(C(=O)O)oc2ccc(S(=O)(=O)N(CC(C)C)CC(C)C)cc12	89
CNC(=O)NC(=O)c1cnccc1C(F)(F)F	100
O=C1c2ccccc2C(=O)N1CCCN1CCN(Cc2c(F)cccc2Cl)CC1	106
O=C(Nc1ccccc1)c1ccc(S(=O)(=O)N2CCCCC2)cc1	100
O=S(=O)(Nc1ccccc1NC1CCN(Cc2ccccc2)CC1)c1ccc(F)cc1	101
COC(=O)c1ccc(-c2ccco2)n1Cc1nc(-c2ccccc2F)oc1C	105
CC(C)(C)NC(=O)CC12CC3CC(CC(C3)C1)C2	101
CCCCC/C=C\C/C=C\C/C=C\C=C\C(=O)CCCC(=O)O	101
CC(C)(C)c1ccc(NC(=O)N2CCN(C3c4ccccc4-c4ccccc43)CC2)cc1	100
CN(C)c1ccc(O)c2c1C[C@H]1C[C@H]3[C@H](N(C)C)C(=O)C(C(N)=O)=C(O)[C@@]3(O)C(=O)C1=C2O	101
Cc1ccc(-c2cc(C(=O)NC(C)(C)CO)no2)cc1	93
NC(=O)Oc1ccc(I)cc1	100
CC(C)(CNS(=O)(=O)c1ccc(Cl)cc1)N1CCCCC1	100
CCOC(=O)c1sc(/N=C/c2cccc(Br)c2)cc1C	102
CNC1=C(c2ccc(C(F)(F)F)cc2)C(=O)C(c2ccccc2)O1 (stereo unspecified)	113
Oc1cccc(-c2nc(-c3ccccc3)c3ccccn23)c1	85
CCOC(=O)C1CSC2(CCCCC2)N1 (stereo unspecified)	104
Nc1nc(SCc2ccc(Cl)c(Cl)c2)n[nH]1	106
COC1=CC(=CN(O)c2ccccc2)C=C(OC)C1=O	91
CC/C(=C\c1sc2ccc(OC)cc2[n+]1CC)SCC(=O)O	102
COC(=O)C1=C(C)NC(SCC(=O)NCc2ccccc2)=C(C#N)C1c1ccccc1F (stereo unspecified)	101
CCOc1ccc(OCc2cccc(C(=O)N3CCCC3)c2)cc1	100
COc1ccc(C)cc1S(=O)(=O)n1nnc2ccccc21	100
CSc1nsc(SC)c1C(=O)NN1CCOCC1	100

Continuation:
SMILES	VACV E9 pol inh
CC(N=Cc1c(O)ccc2ccccc12)C12CC3CC(CC(C3)C1)C2 (stereo unspecified)	99
COC(=O)c1cnn(C(=O)Nc2ccccc2)c1C(OC)OC	101
Nc1c(-c2ccccc2)c(CN2CCOCC2)nn1-c1ccccc1	100
Cc1ccc(/C=C/C(=O)O)cc1S(=O)(=O)N1CCc2ccccc2C1	98
Brc1ccc(-c2nc(-c3cccs3)c(-c3cccs3)[nH]2)s1	105
O=C(O)c1sccc1OCc1ccccc1	94
CN1CCN(c2ccc(CN3CCS(=O)(=O)CC3)cc2)CC1	93
COc1cc(NC(C)CCCN)c2ncccc2c1 (stereo unspecified)	98
COc1ccccc1Nc1nc2cc(Cl)ccc2o1	106
O=C(Nc1ccncc1NC(=O)C1CC1)C1CC1	101
Cc1ccc(NC(=O)Nc2cccs2)cc1	100
Cc1cccc(NC(=O)CSC2=C(C#N)C(c3ccco3)C3=C(CCCC3=O)N2)c1 (stereo unspecified)	100
CCOC(=O)/C=C/c1ccc(N)cc1	106
CCCCn1c(C2CC(=O)N(c3cc(OC)ccc3OC)C2)nc2ccccc21 (stereo unspecified)	101
COc1ccc(/C=C/C(=O)OC2CCCCC2=O)cc1 (stereo unspecified)	101
FC(F)(F)c1nnc(Nc2cccnc2)s1	96
COc1cccc(-c2nn(C)c3sc(C(=O)N4CCN(c5ccccc5)CC4)cc23)c1	105
Cc1cc(C(=O)OCC(=O)N(c2ccccc2)c2ccccc2)c2ccccc2n1	103
S=C1NCN(C2CCCCC2)CN1	101
O=C(CCn1c(=O)oc2cc(Cl)ccc21)n1c(=O)oc2cc(Cl)ccc21	100
Cc1ccc2c(c1)sc(=NC(=O)c1ccc(S(=O)(=O)N(C)C)cc1)n2C	100
O=C(O)c1ccn(Cn2cnc3ccccc32)n1	93
COc1ccc(C2=CC(c3ccccc3)c3ccccc3O2)cc1OC (stereo unspecified)	100
OCc1ccccc1NC(=S)Nc1cccnc1	100

Overlap with the part before: two compounds, then new ones.
SMILES	VACV E9 pol inh
COc1ccc(C2=CC(c3ccccc3)c3ccccc3O2)cc1OC (stereo unspecified)	100
OCc1ccccc1NC(=S)Nc1cccnc1	100
Cc1ccccc1Cc1c(C)nc2c(C(=O)N3CCOCC3)cnn2c1C	105
Cc1c(C)c(C)c(CNC(=S)NN)c(C)c1C	102
CC(C)C(=O)NCCCc1nc2ccccc2[nH]1	95
COc1ccc(C(=O)NCC2OCCc3ccccc32)cc1 (stereo unspecified)	100
CCOC(=O)C1C2C=CC3(CN(C(C)C)C(=O)C13)O2 (stereo unspecified)	100
Cc1cc(C)cc(NC(=O)CSc2ccc3nnc(-c4cccs4)n3n2)c1	105
N=C1CC(=O)N=C2SC(C3CC3)=NN12	92
CN(C)c1c(F)cc(C(=O)NC(=O)NC2=NCCS2)cc1F	100
COc1ccc(-c2nc3n(n2)C(=O)CC(c2ccco2)S3)cc1 (stereo unspecified)	101
NS(=O)(=O)c1ccc(N=Cc2c(O)ccc3ccccc23)cc1	99
CCC(C)(C)NS(=O)(=O)c1cc2[nH]c(=O)c(=O)[nH]c2cc1C	103
O=C1CSCC(=O)N1Cc1cccc(C(F)(F)F)c1	102
Cc1ccc(Cc2nc(-c3ccc(Cl)cc3)cs2)cc1	101
C=CCN(c1ccccc1)S(=O)(=O)c1ccc2c(c1)SC(C)C(=O)N2 (stereo unspecified)	96
Cc1ccccc1NC(=O)CCC(=O)OC1CCC(C(C)(C)C)CC1 (stereo unspecified)	100
CN(Cc1ccccc1)C(=O)c1cccc(C(=O)N(C)Cc2ccccc2)c1	99
Cc1cc2[nH]c(=O)c(=O)[nH]c2cc1S(=O)(=O)NC1CCCC1	112
S=c1[nH]ccn1CCc1ccccc1	100
CCCCCCCCCCCCCCCC(=O)OCC(COP(=O)(O)O)OC(=O)CCCCCCCCCCCCCCC (stereo unspecified)	99
CCOc1ccc2nc(SCc3nc4ccccc4[nH]3)sc2c1	100
NC(=O)CSc1nc2ccccc2c(=O)n1Cc1ccccc1	97
CC1(C(=O)O)CCC(C(=O)N2CCc3ccccc32)C1(C)C (stereo unspecified)	96
C/C(=N\n1nnnc1Nc1ccccc1)c1ccccc1Cl	100
CCOC(=O)c1cc(CO)c(C)nc1C	94
Cc1cc(C(=O)OC2CCOC2=O)c(C)n1-c1ccccc1 (stereo unspecified)	94
O=C(COc1ncnc2cc(Cl)ccc12)c1ccc(F)cc1	93
CCOC(=O)c1[nH]c2ccccc2c1NC(=O)C(C)C	100
NC(=O)C12CCC3CC(CC(C3)C1)C2	97
CCC(C)c1ccc(NC(=O)c2cc3ccccc3o2)cc1 (stereo unspecified)	100
COC(=O)CCS(=O)(=O)c1ccc(Br)cc1	104
CC(C)N(Cc1ccccc1)C(=S)Nc1cccnc1	99
Cc1cc(NC(=O)c2ccccc2)n(CCOC(=O)c2ccccc2)n1	107
O=C(COCC(=O)N1CCCc2ccccc21)N1CCCc2ccccc21	84
CC(C)(C)Nc1nc(NC(C)(C)C)nc(N2CCNCC2)n1	100
CC(C)Oc1ccc(C(=O)NCc2ccco2)cc1	87
O=C(NCCc1csc2nc(-c3ccccc3)nn12)c1cccs1	94
O=C(NC1(O)C(=O)c2ccccc2C1=O)c1cnn(-c2ccccc2)c1C(F)(F)F	99
COC(=O)c1sc(-c2ccc(F)cc2)cc1NC(=O)C(F)(F)F	102
Cc1ccc(-c2csc(Nc3ccccc3)[n+]2NC(=O)c2ccncc2)cc1	96
CC(C)(C)OC(=O)C1CCC(C(=O)Oc2ccc3c4c(c(=O)oc3c2)CCCC4)CN1 (stereo unspecified)	100
CC1(C)COC(=O)C1OC(=O)c1ccccc1 (stereo unspecified)	96
COC(=O)c1ccc(OCC(O)CN2CCC(Cc3ccccc3)CC2)cc1 (stereo unspecified)	101
FC(F)(F)c1ccc2nnnn2c1	91
CCCCc1nnc(N)s1	101
CN=c1scc(C)n1/N=C/c1c(Cl)cccc1Cl	100
O=C(COC(=O)c1cccc(F)c1)Nc1cc(Cl)cc(Cl)c1	101
CC1=C(C(=O)N2CCCCC2)C(c2ccc(O)cc2)C2=C(CC(C)(C)CC2=O)N1 (stereo unspecified)	98
CCOC(=O)COc1ccc2c3c(c(=O)oc2c1)CCC3	91
O=C(CCCn1sc2ccccc2c1=O)NCCc1ccccc1	95
O=C(O)c1cn(C2CC2)c2cc(N3CCNCC3)c(F)cc2c1=O	100
Cc1nn(-c2ccccc2)c(Cl)c1/C=N/O	103
O=C(O)C1C2C=CC(C2)C1C(=O)Nc1nc2ccc(Br)cc2s1 (stereo unspecified)	101
Cc1ccc(S(=O)(=O)C2CS(=O)(=O)CC2S(=O)(=O)c2ccc(C)cc2)cc1 (stereo unspecified)	99
COc1ccc(-c2nc3ccc4ccccc4c3c3c2CCCC3)cc1	100
O=C(c1ccc2nonc2c1)N1CCN(C(c2ccccc2)c2ccccc2)CC1	106
CC1CN(S(=O)(=O)c2cccc(C(=O)O)c2)CC(C)O1 (stereo unspecified)	100
Cn1[nH]c(=S)sc1=NCc1ccccc1	104
OC(CNC1CCCCC1)COc1ccc(-c2ccccc2)cc1 (stereo unspecified)	96
COc1ccccc1N(C(=O)NCc1ccccc1)C1=NCC(C)S1 (stereo unspecified)	100
O=C(CN1C(=O)CCc2ccccc21)NC1CCCc2ccccc21 (stereo unspecified)	103
CCN(Cc1ccccc1)C(=O)CSC1=Nc2ccccc2C2=NC(c3ccccc3)C(=O)N12 (stereo unspecified)	97

Filtered by structure: those above with four or more nitrogen atoms
SMILES	VACV E9 pol inh
CC(=O)N1CCN(c2ncnc3nc[nH]c23)CC1	100
O=C(O)c1nccnc1C(=O)Nc1ccc(N2CCOCC2)cc1	89
c1ccc(OCc2nn3c(-c4ccccc4)nnc3s2)cc1	97
COc1ccc(-c2nnc3ccc(SCc4ccccc4F)nn23)cc1OC	101
CN(C)c1ccc(C(=O)Nc2cc(C(F)(F)F)ccc2-n2cncn2)cc1	102
Cc1cc(C)n(C(=S)CSc2nc(-c3ccc(F)cc3)cc(-c3ccco3)c2C#N)n1	97
Nc1nc(SCc2ccc(Cl)c(Cl)c2)n[nH]1	106
Nc1c(-c2ccccc2)c(CN2CCOCC2)nn1-c1ccccc1	100
FC(F)(F)c1nnc(Nc2cccnc2)s1	96
COc1cccc(-c2nn(C)c3sc(C(=O)N4CCN(c5ccccc5)CC4)cc23)c1	105
O=C(O)c1ccn(Cn2cnc3ccccc32)n1	93
Cc1ccccc1Cc1c(C)nc2c(C(=O)N3CCOCC3)cnn2c1C	105
Cc1cc(C)cc(NC(=O)CSc2ccc3nnc(-c4cccs4)n3n2)c1	105
N=C1CC(=O)N=C2SC(C3CC3)=NN12	92
CN(C)c1c(F)cc(C(=O)NC(=O)NC2=NCCS2)cc1F	100
C/C(=N\n1nnnc1Nc1ccccc1)c1ccccc1Cl	100
CC(C)(C)Nc1nc(NC(C)(C)C)nc(N2CCNCC2)n1	100
O=C(NCCc1csc2nc(-c3ccccc3)nn12)c1cccs1	94
Cc1ccc(-c2csc(Nc3ccccc3)[n+]2NC(=O)c2ccncc2)cc1	96
FC(F)(F)c1ccc2nnnn2c1	91
O=C(c1ccc2nonc2c1)N1CCN(C(c2ccccc2)c2ccccc2)CC1	106
CCN(Cc1ccccc1)C(=O)CSC1=Nc2ccccc2C2=NC(c3ccccc3)C(=O)N12 (stereo unspecified)	97
